YopH inh = inhibitors of Yersinia enterocolitica YopH tyrosine phosphatase; fluorescence Ex485/Em525; inhibition, %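 (about 10 µM by stock and volumes)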; actives 0.16% (n = 140,000); AID 898;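 active = inhibition of 50% or more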;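 note: controls were vehicle for no effect and minimum signal wells for full effect; inactives centre near -20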
Mtb betalactam = beta-lactam sensitization of Mtb H37Rv; M. tuberculosis H37Rv growth with meropenem, percent inhibition; hits of this screen are not shown here; inhibition, % at 25 µM; actives 0.27% (n = 330,000); AID 434955;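 active = about 74% or more and at least 40 points above the plate without the antibiotic, then above 30% in a dose series; inconclusive = first-round hits that could not be retested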;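 note: growth measured after seven days incubation then overnight dye step; 0% = bacteria only wells and 100% = bacteria with antibiotic; twin plates without the antibiotic show which effects depend on it; some results filed as inactive read as strong as hits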
Mtb H37Rv = M. tuberculosis H37Rv growth inhibitors, H37Rv strain (AID 1626); actives 0.95% (n = 220,000); inhibition, % at 10 µM; hits with a dose series show IC50 in µM; M. tuberculosis H37Rv growth inhibition; higher % means a stronger effect;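 active = confirmed in a dose series; inconclusive = inhibition above 80% but not taken into the dose series; inactive = below 80% or under 30% at every dose of the series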;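 note: bacteria incubated seven days before Alamar blue readout; 0% = bacteria only wells and 100% = bacteria with antibiotic wells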
RecA intein inh = inhibitors of M. tuberculosis RecA intein splicing; cell-free RecA intein splicing, fluorescence; inhibition, %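 (about 9 µM by stock and volumes)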; P9WHJ3; AID 2221; actives 0.75% (n = 290,000); in the data active = inhibition above about 30%; inconclusive = no clear call, values can overlap the other calls;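 note: 0% = vehicle wells and 100% = reference inhibitor control wells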
Target sequence (P9WHJ3 whole entry, looked up): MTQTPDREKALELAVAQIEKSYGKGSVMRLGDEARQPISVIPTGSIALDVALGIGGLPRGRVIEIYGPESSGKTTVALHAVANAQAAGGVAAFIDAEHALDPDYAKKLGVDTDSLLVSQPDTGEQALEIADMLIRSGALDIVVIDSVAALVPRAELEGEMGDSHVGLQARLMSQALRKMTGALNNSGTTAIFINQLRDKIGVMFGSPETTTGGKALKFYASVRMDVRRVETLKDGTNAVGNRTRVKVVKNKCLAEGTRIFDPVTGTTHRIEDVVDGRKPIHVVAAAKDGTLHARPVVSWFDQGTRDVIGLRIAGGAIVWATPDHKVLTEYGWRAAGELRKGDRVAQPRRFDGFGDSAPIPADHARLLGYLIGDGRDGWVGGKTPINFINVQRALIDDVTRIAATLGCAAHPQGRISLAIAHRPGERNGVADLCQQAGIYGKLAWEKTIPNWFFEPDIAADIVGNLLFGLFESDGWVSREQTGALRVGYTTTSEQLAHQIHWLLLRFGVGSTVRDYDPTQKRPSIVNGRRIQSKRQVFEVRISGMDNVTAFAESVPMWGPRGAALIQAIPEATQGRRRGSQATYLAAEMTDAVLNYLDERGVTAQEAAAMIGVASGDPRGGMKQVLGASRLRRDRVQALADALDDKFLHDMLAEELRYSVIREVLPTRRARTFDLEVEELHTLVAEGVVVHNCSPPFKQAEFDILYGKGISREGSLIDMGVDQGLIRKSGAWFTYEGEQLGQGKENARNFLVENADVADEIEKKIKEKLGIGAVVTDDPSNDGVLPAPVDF
Arbovirus inh = arbovirus infection inhibition; arbovirus infection cell-based antiviral screen; inhibition, % at 10 µM; actives 0.37% (n = 200,000);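 active = inhibition from about 30%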;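 note: bluetongue infection of BSR cells; cell survival read as ATP light after 72 h; 0% = infected wells without compound and 100% = uninfected wells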
Arbovirus inh repeat = recorded beside Arbovirus inh, whose call it bears; inhibition, %; measured here: 10K subset replicate screen; many hits read low in the repeat;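 first of two repeat runs on a subset; 0% = infected and 100% = uninfected wells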
* marks the source's active call; other numbers are inactive results; ? = inconclusive; · = not tested or not shown. Some of the compounds tested (hit frequency here may not be typical).

SMILES	YopH inh	Mtb betalactam	Mtb H37Rv	RecA intein inh	Arbovirus inh	others
Cc1ccc(NC(=S)N2CCSC2c2cccs2)cc1 (centres undefined)	·	-13	6%	-1.4	28
Cc1ccc(C(=O)Nc2nccs2)cc1S(=O)(=O)N1CCCCC1	-45	3	4%	-1.3	14
O=C(Cn1cnc2ccccc2c1=O)N/N=C/c1ccc(Br)cc1	·	3	-10%	·	·
COc1ccc(CCNC(=O)c2ccc3c(c2)N(Cc2ccc(F)cc2)CCS3)cc1OC	·	2	·	13	·
CC(=O)Nc1ccc(NC(=O)CCC(=O)OCC(=O)c2ccc(C)c([N+](=O)[O-])c2)cc1	·	2	4%	0.1	3
O=C(CCc1nc(-c2ccccc2)c(-c2ccccc2)o1)OCc1ccc(Br)cc1	-24	95	9%	-1.8	2
CC(C)S(=O)(=O)c1csc(NC(=O)Nc2cc(Cl)ccc2Cl)c1Cl	·	4	4%	·	·
CCCC(CCC(=O)NC1CCCCC1)C(=O)O (centres undefined)	-23	-6	-1%	-1.1	1
Cn1c(CCc2ccccc2)nnc1SCC(N)=O	·	3	·	0.5	·
O=C(NCc1ccccc1)C1CC2CCCC(C1)C2=O (centres undefined)	-7	1	-5%	-5.1	-7
CC(C)OP(=O)(OC(C)C)C(O)c1ccc(N(C)C)cc1 (centres undefined)	·	-6	0%	7.1	·
COc1ccc(N2CCN(C(=O)c3cccs3)CC2)cc1	·	-4	·	-1.7	·
Cc1cccc(NC(=O)CSc2nnc(-c3cc(C)[nH]n3)n2N)c1	·	5	·	-0.3	·
O=C(Nc1ccccc1)OC(CN1CCCCC1)C(F)(F)F (centres undefined)	-28	-2	2%	0.0	4
CN(C)/C=C(/C(=O)c1ccc(Cl)cc1Cl)S(=O)(=O)c1ccccc1	-42	-1	-2%	·	4
CC(C)(C)c1ccc(NC(=S)NCCc2ccccn2)cc1	·	-1	11%	-3.0	·
Cc1ccc(OCC(=O)O/N=C(\N)Cc2cccs2)cc1C	-31	1	2%	5.8	·
Cc1cc(C(=O)N/N=C/c2sccc2C)no1	-26	-3	-6%	-2.0	1
COc1ccc(S(=O)(=O)Nc2ccccc2)cc1	·	-3	·	1.9	·
Cc1ccc(NC(=S)N=Nc2c(O)[nH]c3ccccc23)cc1	·	3	?	·	-13
Cc1ccccc1Nc1nc(N)nc(CCl)n1	·	100	77%	2.5	·
CCCN(CCC)CCNC(=O)c1cc2c(-c3ccccc3F)nn(C)c2s1	·	2	·	0.6	·
COc1ccc(/C(C)=N/Nc2cc(C(F)(F)F)ccc2Cl)c(OC)c1	-3	96	9%	10	21
Cc1ccc(CNC(=O)C2CCC(=O)N(C3CC3)C2)cc1 (centres undefined)	·	4	·	-0.4	·
Cc1c(Cl)ccc2c(C(=O)NCCCn3nccc3C)cc(-c3ccccn3)nc12	·	9	·	-0.3	·
CCn1c(C)c(C(C)=O)c(N2CCN(c3ccccc3)CC2)nc1=S	-15	-15	4%	-7.8	-2
O=C(O)CCCCCN1C(=O)CSC1=S	-38	70	3%	1.3	4
CC(NC(=O)c1cccs1)C(c1cccs1)N1CCOCC1 (centres undefined)	-17	0	2%	-3.3	8
CCc1nn(C)c2c(=O)c(=O)c2n(C)[nH]1	·	-5	-1%	-1.7	·
O=C(Nc1ccccc1-c1nnc(SCc2ccc(Cl)cc2Cl)o1)c1ccccc1	-2	15	15%	-3.1	1
Nn1cnc2cc3ccccc3cc2c1=O	·	-4	·	0.3	·
N#C/C(=C(/O)COc1ccc(Cl)cc1)c1nc2ccccc2s1	·	91	15%	8.3	3
CCOC(=O)N1CCC(N(CCCOC)C(=O)Nc2ccc(CC)cc2)CC1	-26	-5	3%	1.3	-3
CCn1c(SCC(=O)N(C)CC(=O)Nc2ccc(OC)cc2)nnc1-c1ccco1	·	-4	·	-3.7	·
Cc1c(CN2CCCCC2C)c(=O)n(-c2ccccc2)n1C (centres undefined)	-40	-5	-1%	1.6	-6
COC(=O)c1ccc(CN2CCN(C3CCCCC3)C(CCO)C2)cc1 (centres undefined)	·	13	-3%	-0.2	0
Cc1ccc(CNC(=O)c2oc3ccc(S(=O)(=O)N4CCC5(CC4)OCCO5)cc3c2C)cc1	-131	-7	0%	1.6	4	Arbovirus inh repeat=-7
O=C(/C=C/c1cccnc1)c1ccc(F)c(F)c1	·	100	·	0.1	·
CN1C(=O)/C(=C/c2ccccc2OCc2ccc(F)cc2)N(C)C1=S	-28	1	16%	-4.6	26
Cc1cccc(NC(=S)N/C(=N/S(=O)(=O)c2ccccc2)c2ccccc2)c1	-7	2	12%	0.0	1
COc1ccc(CCNC(=O)C(C)n2nc(C)n3c(cc4occc43)c2=O)cc1OC (centres undefined)	·	-3	·	-1.6	·
CCCNS(=O)(=O)c1ccc(CCC(=O)N2CCOCC2)cc1	-29	-9	-3%	-1.4	10
Cc1cccc(NC(=O)CC(C)S(=O)(=O)c2ccc3c(c2)NC(=O)CO3)c1C (centres undefined)	·	4	·	2.0	·
Cc1cccc2c1c(N=NC(N)=S)c(O)n2C1OC(CO)C(O)C(O)C1O (centres undefined)	·	2	·	2.9	·
CN(C)S(=O)(=O)c1ccc(N2CCCC2)c(C(=O)N2CCN(c3ccc([N+](=O)[O-])cc3)CC2)c1	·	-11	71%	-3.1	7
O=C1C2CCCN2C(c2ccc(Cl)cc2)N1c1nccs1 (centres undefined)	30	-6	-10%	-1.1	-7
CN(CC(=O)Nc1ccccc1C(F)(F)F)C(=O)c1cc2c(s1)CCCCC2	·	-6	·	-0.7	·
CCOC(=O)C1CCN(C(=O)NS(=O)(=O)c2ccc(C)cc2)CC1	·	-6	-2%	1.0	11
CCOc1ccc(C(c2c(C)[nH][nH]c2=O)c2c(C)[nH][nH]c2=O)cc1OC	-33	-5	-1%	94*	-11
Cn1c(CN2CCN(C(=O)COc3ccccc3)CC2)nc2cc([N+](=O)[O-])ccc21	-7	-6	10%	0.1	1
COc1ccccc1C1CC(=O)NC(C)=C1C(=O)OC(C)C (centres undefined)	·	-10	6%	·	-5
CCOC(=O)c1sc2nc(CC(C)C)c3c(c2c1N)CCC3	-9	2	4%	-5.5	4

Compounds from the list above with a halogen, in the order listed:
SMILES	YopH inh	Mtb betalactam	Mtb H37Rv	RecA intein inh	Arbovirus inh	others
O=C(Cn1cnc2ccccc2c1=O)N/N=C/c1ccc(Br)cc1	·	3	-10%	·	·
COc1ccc(CCNC(=O)c2ccc3c(c2)N(Cc2ccc(F)cc2)CCS3)cc1OC	·	2	·	13	·
O=C(CCc1nc(-c2ccccc2)c(-c2ccccc2)o1)OCc1ccc(Br)cc1	-24	95	9%	-1.8	2
CC(C)S(=O)(=O)c1csc(NC(=O)Nc2cc(Cl)ccc2Cl)c1Cl	·	4	4%	·	·
O=C(Nc1ccccc1)OC(CN1CCCCC1)C(F)(F)F (centres undefined)	-28	-2	2%	0.0	4
CN(C)/C=C(/C(=O)c1ccc(Cl)cc1Cl)S(=O)(=O)c1ccccc1	-42	-1	-2%	·	4
Cc1ccccc1Nc1nc(N)nc(CCl)n1	·	100	77%	2.5	·
CCCN(CCC)CCNC(=O)c1cc2c(-c3ccccc3F)nn(C)c2s1	·	2	·	0.6	·
COc1ccc(/C(C)=N/Nc2cc(C(F)(F)F)ccc2Cl)c(OC)c1	-3	96	9%	10	21
Cc1c(Cl)ccc2c(C(=O)NCCCn3nccc3C)cc(-c3ccccn3)nc12	·	9	·	-0.3	·
O=C(Nc1ccccc1-c1nnc(SCc2ccc(Cl)cc2Cl)o1)c1ccccc1	-2	15	15%	-3.1	1
N#C/C(=C(/O)COc1ccc(Cl)cc1)c1nc2ccccc2s1	·	91	15%	8.3	3
O=C(/C=C/c1cccnc1)c1ccc(F)c(F)c1	·	100	·	0.1	·
CN1C(=O)/C(=C/c2ccccc2OCc2ccc(F)cc2)N(C)C1=S	-28	1	16%	-4.6	26
O=C1C2CCCN2C(c2ccc(Cl)cc2)N1c1nccs1 (centres undefined)	30	-6	-10%	-1.1	-7
CN(CC(=O)Nc1ccccc1C(F)(F)F)C(=O)c1cc2c(s1)CCCCC2	·	-6	·	-0.7	·
